Screens from PubChem.
A1 apoptosis 2: blocks A1, raising caspase activity | MEF A1-2A-BIM cells, caspase-Glo luminescence, 3 h; percent of clofoctol response, DMSO zero | caspase activation, % (concentration not given with the values) | 24,000 tested, under 10 active | AID 2465; in the data active = caspase activation above about 5.9%;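 also: wells of about 30 µL received 50 nL stock; the first replicate is given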
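System: mouse embryonic fibroblasts co-expressing A1 and BIM (A1-2A-BIM), primed for A1 dependence; amount: 2500 cells/well; doses: 50 nL pinned compound; schedule: cells settled overnight, compound exposure 3 h at 37 °C, 5% CO2; detection: Caspase-Glo 3/7 luminescence, 1 h at room temperature; read-out: Caspase-3/7 activation, seen as rise in luminescence signal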
The depositor's hits bear a star. Only part of the results is shown (hit frequency here may not be typical).

| Molecule | A1 apoptosis 2 |
| --- | --- |
| C[C@@H]1CN([C@H](C)CO)C(=O)c2cc(NC(=O)Nc3ccc(C(F)(F)F)cc3)ccc2O[C@@H]1CN(C)CC1CC1 | -0.7 |
| C[C@H](CO)N1C[C@H](C)[C@H](CN(C)Cc2ccc(C(F)(F)F)cc2)Oc2ccc(NC(=O)Nc3ccc(F)cc3)cc2C1=O | -2.3 |
| C=C[C@H](COC(C)=O)N(Cc1ccc(OC(C)=O)c(OC)c1)S(=O)(=O)c1ccc(Br)cc1 | 0.4 |
| C[C@@H]1CN([C@H](C)CO)C(=O)c2cccc(N(C)C)c2O[C@H]1CN(C)S(=O)(=O)c1cn(C)cn1 | 0.9 |
| C[C@@H]1CN([C@@H](C)CO)C(=O)c2cc(NC(=O)Nc3ccc4c(c3)OCO4)ccc2O[C@@H]1CN(C)C(=O)NC1CCCCC1 | 0.3 |
| C[C@@H]1CN([C@@H](C)CO)C(=O)Cc2cc(NS(=O)(=O)c3cccs3)ccc2O[C@@H]1CN(C)C(=O)NC1CCCCC1 | 0.0 |
| Cc1noc(C)c1NC(=O)N(C)C[C@H]1Oc2c(cccc2N(C)C)C(=O)N([C@H](C)CO)C[C@@H]1C | -0.3 |
| COc1ccc(NC(=O)N(C)C[C@@H]2Oc3ccc(NS(=O)(=O)c4ccccc4)cc3CC(=O)N([C@H](C)CO)C[C@H]2C)cc1 | -0.6 |
| C[C@H]1CN([C@@H](C)CO)C(=O)Cc2cc(NC(=O)NC3CCCCC3)ccc2O[C@H]1CN(C)Cc1ccncc1 | 0.3 |
| C[C@@H]1CN([C@H](C)CO)C(=O)c2cccc(N(C)C)c2O[C@H]1CN(C)C(=O)Nc1ccc(C(F)(F)F)cc1 | 0.0 |
| C[C@@H]1CN([C@H](C)CO)C(=O)c2cccc(NS(C)(=O)=O)c2O[C@H]1CN(C)C | -0.2 |
| C[C@H](CO)N1C[C@H](C)[C@H](CN(C)Cc2ccc3c(c2)OCO3)Oc2ncc(Br)cc2C1=O | 0.7 |
| C[C@@H]1CN([C@@H](C)CO)C(=O)CCCn2cc(nn2)CO[C@H]1CN(C)Cc1ccc(O)cc1 | -0.5 |
| C[C@H](CO)N1C[C@H](C)[C@H](CN(C)S(=O)(=O)c2ccccc2)Oc2c(NC(=O)c3nc4ccccc4s3)cccc2C1=O | -0.9 |
| C[C@H](CO)N1C[C@H](C)[C@H](CN(C)C)OCc2cn(nn2)CCCC1=O | 0.0 |
| C[C@@H]1CN([C@@H](C)CO)C(=O)c2cc(NS(C)(=O)=O)ccc2O[C@H]1CN(C)C(=O)Nc1ccc(C(F)(F)F)cc1 | 0.3 |
| C[C@H](CO)N1C[C@H](C)[C@H](CN(C)C(=O)Nc2ccc(F)cc2)Oc2ccc(NS(=O)(=O)c3ccc(F)cc3)cc2C1=O | 1.2 |
| C[C@H](CO)N1C[C@H](C)[C@@H](CN(C)Cc2ccc(C(F)(F)F)cc2)Oc2ccc(NC(=O)CCCN(C)C)cc2C1=O | -0.5 |
| Cc1ccc(S(=O)(=O)Nc2cccc3c2O[C@H](CN(C)C(=O)Nc2ccc(F)cc2)[C@@H](C)CN([C@@H](C)CO)C3=O)cc1 | 0.0 |
| Cc1ccc(S(=O)(=O)N(C)C[C@H]2OCCCC[C@H](C)Oc3ccc(NC(=O)Nc4ccc5c(c4)OCO5)cc3C(=O)N([C@@H](C)CO)C[C@@H]2C)cc1 | -1.1 |
| COc1ccc(S(=O)(=O)N(C)C[C@@H]2Oc3c(NC(=O)c4nc5ccccc5s4)cccc3C(=O)N([C@H](C)CO)C[C@@H]2C)cc1 | -0.4 |
| C[C@@H]1CN([C@@H](C)CO)C(=O)CCCn2cc(nn2)CO[C@H]1CN(C)S(=O)(=O)c1ccc2c(c1)OCCCO2 | -1.1 |
| C[C@H](CO)N1C[C@H](C)[C@H](CN(C)S(=O)(=O)c2cccs2)Oc2ccc(NC(=O)CCCCCC(=O)Nc3ccccc3N)cc2C1=O | 1.2 |
| COc1ccc(CN(C)C[C@@H]2Oc3ccc(NC(=O)NC4CCCCC4)cc3CC(=O)N([C@H](C)CO)C[C@H]2C)cc1 | 1.8 |
| Cc1ccc(S(=O)(=O)Nc2ccc3c(c2)C(=O)N([C@H](C)CO)C[C@@H](C)[C@@H](CN(C)Cc2ccc(Oc4ccccc4)cc2)O3)cc1 | 1.2 |

2 successive entries out of the list so far, for reference:
| Molecule | A1 apoptosis 2 |
| --- | --- |
| C[C@H](CO)N1C[C@H](C)[C@H](CN(C)S(=O)(=O)c2ccccc2)Oc2c(NC(=O)c3nc4ccccc4s3)cccc2C1=O | -0.9 |
| C[C@H](CO)N1C[C@H](C)[C@H](CN(C)C)OCc2cn(nn2)CCCC1=O | 0.0 |

Other records:
| Molecule | A1 apoptosis 2 |
| --- | --- |
| C[C@H](CO)N1C[C@H](C)[C@@H](CN(C)C(=O)Nc2ccc(F)cc2)Oc2c(NC(=O)CCCCCC(=O)Nc3ccccc3N)cccc2C1=O | 0.8 |
| Cc1ccc(S(=O)(=O)N(C)C[C@H]2Oc3ccc(NC(=O)CCN4CCOCC4)cc3CC(=O)N([C@H](C)CO)C[C@@H]2C)cc1 | -0.6 |
| COc1ccc(S(=O)(=O)N(C)C[C@@H]2Oc3ccc(NC(=O)Cn4cnnn4)cc3CC(=O)N([C@@H](C)CO)C[C@H]2C)cc1 | -0.8 |
| CNC[C@@H]1Oc2ccc(NS(=O)(=O)c3ccc(C)cc3)cc2C(=O)N([C@H](C)CO)C[C@@H]1C | -0.7 |
| C[C@@H]1CCCCO[C@@H](CN(C)Cc2ccc(C(=O)O)cc2)[C@H](C)CN([C@H](C)CO)C(=O)c2cc(N(C)C)ccc2O1 | 0.7 |
| C[C@@H]1CN([C@@H](C)CO)C(=O)Cc2cc(NC(=O)Nc3ccc(C(F)(F)F)cc3)ccc2O[C@@H]1CN(C)Cc1ccc(C(=O)O)cc1 | -0.2 |
| Cc1ccc(F)cc1S(=O)(=O)N[C@@H]1CCN(Cc2ccc(CC(C)C)cc2)C1 | 0.5 |
| C[C@@H]1CCCCO[C@H](CN(C)S(=O)(=O)c2cccs2)[C@@H](C)CN([C@H](C)CO)C(=O)c2cc(NC(=O)CCCN(C)C)ccc2O1 | 0.3 |
| C[C@@H]1CN([C@H](C)CO)C(=O)c2cc(NC(=O)C3CC3)ccc2O[C@@H]1CN(C)Cc1ccc(C(=O)O)cc1 | -0.3 |
| C[C@@H]1CCCCO[C@@H](CN(C)Cc2ccncc2)[C@@H](C)CN([C@@H](C)CO)C(=O)c2cc(NC(=O)NC3CCCCC3)ccc2O1 | -0.3 |
| C[C@H](CO)N1C[C@H](C)[C@H](CN(C)Cc2ccc(C(=O)Nc3ccccc3N)cc2)Oc2ccc(NC(=O)Cn3cnnn3)cc2C1=O | 1.3 |
| Cc1ccc(S(=O)(=O)Nc2ccc3c(c2)C(=O)N([C@@H](C)CO)C[C@@H](C)[C@H](CN(C)C)O3)cc1 | -1.3 |
| CC(C)NC(=O)N(C)C[C@H]1OCCCC[C@@H](C)Oc2ccc(NC(=O)Cc3ccccc3)cc2C(=O)N([C@H](C)CO)C[C@@H]1C | 0.4 |
| C[C@H](CO)N1C[C@H](C)[C@H](CN(C)Cc2ccc3c(c2)OCO3)Oc2c(NC(=O)Nc3ccc(C(F)(F)F)cc3)cccc2C1=O | 0.0 |
| COc1ccc(NC(=O)Nc2cccc3c2O[C@@H](CN(C)CC2CC2)[C@H](C)CN([C@@H](C)CO)C3=O)cc1 | 1.1 |
| C[C@H](CO)N1C[C@H](C)[C@@H](CN(C)C(=O)Nc2ccc(F)cc2)Oc2ccc(NC(=O)CCC(F)(F)F)cc2C1=O | 0.3 |
| COc1ccc(CN(C)C[C@H]2OCCCC[C@@H](C)Oc3ccc(NC(=O)c4ccncc4)cc3C(=O)N([C@@H](C)CO)C[C@@H]2C)cc1 | -0.3 |
| Cc1ccc(S(=O)(=O)N(C)C[C@H]2Oc3ccc(NC(=O)C4CC4)cc3C(=O)N([C@H](C)CO)C[C@@H]2C)cc1 | -0.1 |
| C[C@H]1CN([C@@H](C)CO)C(=O)Cc2cc(NC(=O)C3CC3)ccc2O[C@H]1CN(C)Cc1ccc(C(F)(F)F)cc1 | 0.4 |
| CC(C)COC(=O)N(C)C[C@@H]1OCc2cn(nn2)CCCC(=O)N([C@H](C)CO)C[C@@H]1C | 0.2 |
| CCO[C@@H]1OC(C(=O)N2CCN(Cc3ccccc3)CC2)=C[C@H](C(C)(C)C)[C@H]1CCCO | -0.5 |
| COc1ccc(S(=O)(=O)Nc2ccc3c(c2)C(=O)N([C@@H](C)CO)C[C@H](C)[C@H](CN(C)CC2CC2)O3)cc1 | 0.4 |
| C#Cc1ccc([C@H]2C=C(C(=O)NCc3nc4ccccc4[nH]3)O[C@@H](OCCCCO)C2)cc1 | -0.3 |
| C[C@@H]1CN([C@@H](C)CO)C(=O)CCCn2cc(nn2)CO[C@@H]1CN(C)C(=O)c1cc(-c2ccccc2)on1 | 2.0 |
| C[C@H]1CN([C@@H](C)CO)C(=O)Cc2cc(NS(=O)(=O)c3ccc(F)cc3)ccc2O[C@@H]1CN(C)S(C)(=O)=O | 0.2 |

Shown as labelled records: four of the compounds above.
C[C@@H]1CN([C@@H](C)CO)C(=O)Cc2cc(NC(=O)Nc3ccc(C(F)(F)F)cc3)ccc2O[C@@H]1CN(C)Cc1ccc(C(=O)O)cc1
  A1 apoptosis 2: -0.2
C[C@H](CO)N1C[C@H](C)[C@@H](CN(C)C(=O)Nc2ccc(F)cc2)Oc2ccc(NC(=O)CCC(F)(F)F)cc2C1=O
  A1 apoptosis 2: 0.3
Cc1ccc(S(=O)(=O)N(C)C[C@H]2Oc3ccc(NC(=O)CCN4CCOCC4)cc3CC(=O)N([C@H](C)CO)C[C@@H]2C)cc1
  A1 apoptosis 2: -0.6
COc1ccc(NC(=O)Nc2cccc3c2O[C@@H](CN(C)CC2CC2)[C@H](C)CN([C@@H](C)CO)C3=O)cc1
  A1 apoptosis 2: 1.1

Later entries:
| Molecule | A1 apoptosis 2 |
| --- | --- |
| C[C@H](CO)N1C[C@H](C)[C@@H](CN(C)C(=O)Nc2ccccc2)Oc2c(NS(=O)(=O)c3ccccc3)cccc2C1=O | -0.4 |
| COc1cc(Br)cc(/C=N/NC(=O)c2ccccc2O)c1O | -13 |
| C[C@H](CO)N1C[C@H](C)[C@H](CN(C)C(=O)Cc2ccccc2)OCCCC[C@H](C)Oc2ccc(NC(=O)Nc3ccc(F)cc3)cc2C1=O | -0.7 |
| CCCN(C)C[C@H]1OCCCC[C@@H](C)Oc2ccc(NC(=O)NC(C)C)cc2C(=O)N([C@H](C)CO)C[C@@H]1C | -1.7 |
| C[C@H]1CN([C@@H](C)CO)C(=O)Cc2cc(NC(=O)Cc3cn(C)c4ccccc34)ccc2O[C@H]1CN(C)CC1CC1 | -0.1 |
| CC(C)NC(=O)N(C)C[C@@H]1Oc2ccc(NC(=O)Nc3cccc4ccccc34)cc2CC(=O)N([C@H](C)CO)C[C@@H]1C | 0.0 |
| COc1ccc(NC(=O)Nc2ccc3c(c2)CC(=O)N([C@H](C)CO)C[C@@H](C)[C@@H](CN(C)C(=O)Nc2ccc(OC)cc2)O3)cc1 | 1.2 |
| Cc1ccc(S(=O)(=O)Nc2ccc3c(c2)C(=O)N([C@H](C)CO)C[C@H](C)[C@H](CN(C)S(=O)(=O)c2c(C)noc2C)OCCCC[C@H](C)O3)cc1 | 0.9 |
| Cc1ccc(S(=O)(=O)N(C)C[C@H]2Oc3ccc(NC(=O)Cc4cn(C)c5ccccc45)cc3CC(=O)N([C@@H](C)CO)C[C@@H]2C)cc1 | -0.7 |
| C[C@@H]1CN([C@H](C)CO)C(=O)Cc2cc(NC(=O)CCC(F)(F)F)ccc2O[C@H]1CN(C)Cc1ccc(-c2ccccc2)cc1 | 0.3 |
| C[C@@H]1CN([C@@H](C)CO)C(=O)Cc2cc(NC(=O)CCCCCC(=O)Nc3ccccc3N)ccc2O[C@H]1CN(C)Cc1ccc(-c2ccccc2)cc1 | -0.3 |
| [N-]=[N+]=Nc1ccccc1C[C@@]1(C(=O)NCCN2CCOCC2)N=C(c2ccc(OCCCO)cc2)O[C@@H]1c1ccccc1 | 0.2 |
| O=C(C1=C[C@H](c2ccc(Br)cc2)C[C@H](OCc2ccc(CO)cc2)O1)N1CCCCCCC1 | 0.7 |
| C=CC[C@@]1(C(=O)N(C)C)N=C(c2ccc(OCCCO)cc2)O[C@@H]1c1ccccc1 | 0.5 |
| C[C@@H]1CCCCO[C@@H](CN(C)Cc2ccc3c(c2)OCO3)[C@@H](C)CN([C@H](C)CO)C(=O)c2cc(NC(=O)Nc3ccc(F)cc3)ccc2O1 | -1.2 |
| COc1ccc(S(=O)(=O)Nc2ccc3c(c2)CC(=O)N([C@H](C)CO)C[C@@H](C)[C@@H](CN(C)S(=O)(=O)c2cn(C)cn2)O3)cc1 | 1.5 |
| C[C@H](CO)N1C[C@H](C)[C@H](CN(C)S(C)(=O)=O)OCCCC[C@H](C)Oc2ccc(NC(=O)C3CCCCC3)cc2C1=O | -0.5 |
| C[C@H](CO)N1C[C@H](C)[C@@H](CN(C)C(=O)Nc2ccccc2)Oc2ccc(NC(=O)c3ccncc3)cc2C1=O | -0.4 |
| COc1ccc(S(=O)(=O)N(C)C[C@@H]2Oc3c(NC(=O)C4CCOCC4)cccc3C(=O)N([C@@H](C)CO)C[C@H]2C)cc1 | 1.5 |
| C[C@@H]1CCCCO[C@@H](CN(C)S(=O)(=O)c2cn(C)cn2)[C@@H](C)CN([C@@H](C)CO)C(=O)c2cc(NC(=O)NC3CCCCC3)ccc2O1 | 2.1 |
| O=C(NO)c1ccc(C(=O)N/N=C/c2nccs2)cc1 | 0.0 |
| COC(=O)CCCCCCC(=O)N/N=C/c1cc(Br)ccc1OC | 1.0 |
| CCCN(C)C[C@@H]1Oc2ncc(Br)cc2C(=O)N([C@H](C)CO)C[C@@H]1C | -0.6 |
| C[C@H]1CN([C@@H](C)CO)C(=O)Cc2cc(NC(=O)Cn3cnnn3)ccc2O[C@H]1CN(C)C(=O)Nc1ccc(F)cc1 | 0.2 |
| C[C@H]1CN([C@@H](C)CO)C(=O)c2cc(NC(=O)Nc3ccc(C(F)(F)F)cc3)ccc2O[C@@H]1CN(C)S(=O)(=O)c1ccc(F)cc1 | 0.3 |
